# Source: PubChem BioAssay (National Center for Advancing Translational Sciences (NCATS))
# Sfp inh – Sfp phosphopantetheinyl transferase inhibition; Potency, µM, for inactives: max response, negative = inhibition, usual class: inhibitors; Q9F4F7; Biochemical Sfp PPTase activity, qHTS; hit rate 3.5% among 310,000; AID 1490; active = well fitted inhibition curve with a large enough effect; inconclusive = small, poorly fitted or top-dose-only effect, or another doubt; inactive = no such curve, though single readings can be large or run the other way;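 also: the enzyme is Sfp with the accession as filed and its product quenches rhodamine fluorescence; 0% = enzyme reaction without inhibitor and -100% = no enzyme wells; top concentration of the series not given in the record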
#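 Reaction rates are the 30-min fluorescence difference (ex 525, em 598 nm) in wells containing 15 nM Sfp, 5 uM rhodamine-CoA and 12.5 uM BHQ-2-YbbR at pH 7.6 with 10 mM MgCl2.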
# PINK1 modulator – PINK1 expression modulation | PINK1 immunofluorescence, high-content cytometry, 24 h | hit rate 0.2% among 410,000 | Potency, µM (doses to about 76.6 µM), for the others: at the top dose activation (PINK1 increase), hits mostly activators; active = well fitted activation curve with a large enough effect; inconclusive = small, poorly fitted or top-dose-only effect; inactive = flat fitted curve, though single readings scatter; cell line not stated here;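 also: % of control where 0% means no effect; nearly all actives have a fitted effect of over 65% in size; a mitochondrial uncoupler was the plate control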
#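 Decision-based qHTS: stable cells, 24 h exposure to five compound concentrations, CCCP as control. Fixed cells stained for PINK1 plus nuclear, mitochondrial and cell markers, cytometer read.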
# ClpP mod – qHTS Assay for Activators of ClpP; hit rate 1.9% among 340,000; ATP-dependent Clp protease proteolytic subunit (Bacillus subtilis (strain 168)), P80244; Potency, µM (highest dose often 57.5 µM), without a hit: at the highest dose activity change, negative = active; purified B. subtilis ClpP, FRET peptide cleavage, 20 min; active = well fitted falling curve with a large enough effect; inconclusive = small, poorly fitted or top-dose-only effect; inactive = no such curve, though single readings can be large or run the other way; also: the source files actives as falling curves though it sought activators and does not explain the sign; nearly all actives have a fitted effect of over 65% in size; many hits overshoot -100%
# Target sequence (P80244 whole entry, looked up): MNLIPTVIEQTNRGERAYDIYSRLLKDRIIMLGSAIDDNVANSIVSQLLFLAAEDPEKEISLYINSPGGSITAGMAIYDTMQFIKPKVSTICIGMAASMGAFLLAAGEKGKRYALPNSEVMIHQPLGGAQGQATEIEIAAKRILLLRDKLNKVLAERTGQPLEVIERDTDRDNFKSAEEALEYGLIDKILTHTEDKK
#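 Buffer: 100 mM Tris/HCl pH8, 100 mM KCl, 0.05% low protease BSA, 2.5% glycerol, 0.01% Tween-20. ClpP 10 microg/mL final; 20 min RT; delta FRET normalized to ADEP and DMSO controls.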
# Active calls of the source: *; ? = inconclusive; · = not tested or not shown. Potency is read from the fitted curve at half-maximal effect. The list is partial (hit frequency here may not be typical).
# Sample of the layout:
SMILES,Sfp inh,PINK1 modulator,ClpP mod
Cc1c(C(=O)N2CCCCCC2)sc2ncnc(NCC3CCCO3)c12 (stereo not given),·,-0.5%,·
CC1(C)c2[nH]c3ccccc3c2C[C@@H]2C(=O)N(Cc3ccco3)C(=O)N21,·,0.6%,·
O=C(OCC#CCSc1nnc(-c2cccc3ccccc23)o1)c1cccc2[nH]ccc12,·,5.9%,·

# Results (from the top)
SMILES,Sfp inh,PINK1 modulator,ClpP mod
Cc1c(C(=O)N2CCCCCC2)sc2ncnc(NCC3CCCO3)c12 (stereo not given),·,-0.5%,·
CC1(C)c2[nH]c3ccccc3c2C[C@@H]2C(=O)N(Cc3ccco3)C(=O)N21,·,0.6%,·
O=C(OCC#CCSc1nnc(-c2cccc3ccccc23)o1)c1cccc2[nH]ccc12,·,5.9%,·
COc1cccc(OC)c1CN1CCC2(CCC(CNC(=O)c3ccccc3)O2)CC1 (stereo not given),·,0.1%,·
Cc1nc(SCc2nc3c(C)cccc3[nH]2)c2oc3ccccc3c2n1,·,1.6%,·
COc1ccccc1C1CN(CCNC(=O)c2ccc3c(c2)OCCO3)Cc2ccccc2O1 (stereo not given),·,0.5%,·
Cn1ccc2cc(-c3ccc4ncnc(NCc5cccs5)c4c3)ccc21,·,?,·
CC(C)(C)n1nc(Cc2cccc3ccccc23)c(C#N)c1N,·,2.4%,·
NS(=O)(=O)Nc1c(Br)cc(Br)c2cccnc12,·,-1.0%,·
COc1ccc(CNC(=O)C2CCCN2c2nc(C)c3ccccc3n2)cc1 (stereo not given),·,-0.4%,·
COc1cc(=O)n2c(c1C(=O)N(C)Cc1cscn1)CCN(Cc1ccc3c(c1)OCCO3)CC2,·,1.4%,·
CCOc1cccc(CN2CCC(n3cc(C(=O)N4CCCCC4)nn3)CC2)c1O,·,-1.1%,·
Cc1ccc(-c2ccnc(-n3ncc(C(=O)N4CCCCC4c4cccnc4)c3C3CC3)n2)o1 (stereo not given),·,-0.7%,·
COc1cccc(-c2nc3cc4c(cc3cc2CN(C(=O)c2cc(C)nn2C)C2CC2)CCC4)c1OC,·,3.1%,·
Cc1ccccc1-c1cncnc1NC1CCNCC1,0.7%,-0.2%,·
O=Cc1ccc2[nH]ccc2c1,·,·,0.4%
CC(C)[C@H](NC(=O)OC(C)(C)C)c1cc(C(=O)N(C)CCN(C)C)c(N)s1,·,·,-5.0%
CCCCNC(=O)c1[nH]c(C2CCNCC2)nc1-c1cccc(C(F)(F)F)c1,·,·,-13.0%
COc1ccc(CN2C(=O)CSCC2(C)C(=O)Nc2c(C)cccc2C)cc1 (stereo not given),·,·,-0.4%
COC(=O)[C@]12CCCCC=C1N(Cc1ccc3c(c1)OCO3)C(=O)[C@H](CC(=O)N1CCN(C(=O)c3ccco3)CC1)C2,·,·,0.3%
COc1ccccc1/C=c1/[nH]c(=O)/c(=C\c2ccccc2OC)[nH]c1=O,·,·,-0.9%
CC1=C(C(=O)N2CCCCCC2)CC(CC(=O)NCCCN(C)C)C(=O)N1Cc1ccc(C(C)(C)C)cc1 (stereo not given),·,·,0.9%
COCc1cn(CC(C)n2c(=O)c3ccccc3n2Cc2cc(C(C)C)no2)nn1 (stereo not given),·,·,4.4%
COc1ccccc1-c1cn(CC[C@@H]2CC[C@H](NC(=O)C3CCC3)[C@@H](CO)O2)nn1,·,·,-4.8%
CC(C)NC(=O)C1(C)CN(S(C)(=O)=O)CC(=O)N1C1CC1 (stereo not given),·,·,4.1%
O=C(Nc1ccc(F)cc1)C(CCc1ccccc1)N1CCN(c2cccc(C(F)(F)F)n2)CC1 (stereo not given),·,·,-22.4%
CN(C)CC(=O)N[C@@H]1CC[C@@H](CC(=O)NCCN2CCCCC2)O[C@@H]1CO,·,·,1.3%
CN(C)CC(=O)N[C@@H]1C=C[C@@H](CC(=O)NCCN2CCCCC2)O[C@@H]1CO,·,·,-0.1%
CC(C)NC(=O)C1(C)CSCC(=O)N1CC(F)(F)F (stereo not given),·,·,-2.4%
COC(=O)[C@@]12C[C@@H](CC(=O)NCCCN3CCCC3=O)C(=O)N(Cc3ccco3)C1=CCC(C)(C)C2,·,·,-0.4%
CCOC(=O)N(C(=O)c1ccccc1)c1ccccc1,·,·,0.6%
Cc1cccc(C)c1N1C(=O)c2ccccc2NC(=O)C1C(=O)NCc1ccco1 (stereo not given),·,·,-6.9%
CCOC(=O)[C@]12CCCC=C1N(CCC1=CCCCC1)C(=O)[C@H](CC(=O)NCc1ccccc1)C2,·,·,2.3%
CC(C)NC(=O)C1(C)CSCC(=O)N1Cc1cccs1 (stereo not given),·,·,1.4%
O=C(C[n+]1ccnc2ccccc21)c1ccc(Cl)cc1,·,·,-3.3%
COc1ccc(NC(=O)C(c2ccncc2)n2c(=O)c(-c3ccco3)nc3ccccc32)cc1 (stereo not given),·,·,-23.2%
COC(=O)[C@H](CC(C)C)NS(=O)(=O)NC(=O)OC(C)(C)C,·,·,-2.0%
COc1cccc(C(C(=O)NC2CCCC2)N2CCN(c3cc(C)nc4ccccc34)CC2)c1OC (stereo not given),·,·,-0.4%
Cc1cc(C=O)cc(C)c1[N+](=O)[O-],·,·,0.6%
COc1ccc(CN2C(=O)CN(S(C)(=O)=O)CC2(C)C(=O)NC(C)C)cc1OC (stereo not given),·,·,-3.7%

# Sorted by number of heavy atoms (lowest first): 12 of the compounds above.
SMILES,Sfp inh,PINK1 modulator,ClpP mod
Cc1cc(C=O)cc(C)c1[N+](=O)[O-],·,·,0.6%
CC(C)NC(=O)C1(C)CSCC(=O)N1CC(F)(F)F (stereo not given),·,·,-2.4%
O=C(C[n+]1ccnc2ccccc21)c1ccc(Cl)cc1,·,·,-3.3%
COC(=O)[C@H](CC(C)C)NS(=O)(=O)NC(=O)OC(C)(C)C,·,·,-2.0%
COc1ccccc1/C=c1/[nH]c(=O)/c(=C\c2ccccc2OC)[nH]c1=O,·,·,-0.9%
CN(C)CC(=O)N[C@@H]1CC[C@@H](CC(=O)NCCN2CCCCC2)O[C@@H]1CO,·,·,1.3%
COc1ccc(CN2C(=O)CN(S(C)(=O)=O)CC2(C)C(=O)NC(C)C)cc1OC (stereo not given),·,·,-3.7%
Cc1cccc(C)c1N1C(=O)c2ccccc2NC(=O)C1C(=O)NCc1ccco1 (stereo not given),·,·,-6.9%
COc1ccc(NC(=O)C(c2ccncc2)n2c(=O)c(-c3ccco3)nc3ccccc32)cc1 (stereo not given),·,·,-23.2%
O=C(Nc1ccc(F)cc1)C(CCc1ccccc1)N1CCN(c2cccc(C(F)(F)F)n2)CC1 (stereo not given),·,·,-22.4%
COc1cccc(C(C(=O)NC2CCCC2)N2CCN(c3cc(C)nc4ccccc34)CC2)c1OC (stereo not given),·,·,-0.4%
CC1=C(C(=O)N2CCCCCC2)CC(CC(=O)NCCCN(C)C)C(=O)N1Cc1ccc(C(C)(C)C)cc1 (stereo not given),·,·,0.9%

# (next part)
SMILES,Sfp inh,PINK1 modulator,ClpP mod
Cc1cccc(C)c1NC(=O)C1(C)CSCC(=O)N1CC(C)C (stereo not given),·,·,-3.1%
Cc1cccc(C)c1NC(=O)C(c1ccc(-c2ccccc2)cc1)n1c(=O)c(-c2cc3ccccc3[nH]2)nc2ccccc21 (stereo not given),·,·,40.4%
O=C(C[n+]1csc2ccccc21)c1ccccc1,·,·,0.0%
CCCCCNC(=O)C(CCc1ccccc1)n1c(=O)c(-c2ccccc2)nc2ccccc21 (stereo not given),·,·,?
COC(=O)[C@]12CCCCC=C1N(CCc1ccc(OC)c(OC)c1)C(=O)[C@H](CC(=O)NCc1ccc(OC)c(OC)c1)C2,·,·,-8.2%
CCCCNC(=O)c1nc(C2CCN(S(=O)(=O)c3ccc(Cl)cc3)CC2)oc1-c1ccccc1,·,·,20.4%
O=C(NC1CCCC1)C1C(c2ccc(C(F)(F)F)cc2)=Nc2ccccc2N1C(=O)c1cccc(C(F)(F)F)c1 (stereo not given),·,·,-28.4%
COC(=O)C(C(=O)OC)C1CCCCC1NS(=O)(=O)c1ccc(C)cc1 (stereo not given),·,·,-1.3%
O=C(NCC[C@H]1CC[C@@H](NC(=O)C2CCOCC2)[C@@H](CO)O1)Nc1ccc(Cl)cc1,·,·,-2.0%
CCOC(=O)C1=CCC(c2ccccc2)N(S(=O)(=O)c2ccc(C)cc2)[C@H]1CC (stereo not given in full),·,·,-2.7%
Cc1ccc(S(=O)(=O)N2CC3C(=O)C[C@@H](c4ccccc4)N(S(=O)(=O)c4ccc(CCCOCCOCCNC(=O)OC(C)(C)C)cc4)C3CC2c2ccccc2)cc1 (stereo not given in full),·,·,1.0%
CN(C)c1ccc(/C=C/c2ccnc3c2ccc2c(/C=C/c4ccc(N(C)C)cc4)ccnc23)cc1,·,·,-1.5%
COC(=O)C[C@H]1CC[C@H](NC(=O)Nc2ccccc2F)[C@@H](CO)O1,·,·,-1.4%
CCOC(=O)C[C@@H]1OC2CCCCC2N1S(=O)(=O)c1ccc(C)cc1 (stereo not given in full),·,·,1.2%
O=C(C[n+]1cccc2cccc(O)c21)c1ccc(Br)cc1,·,·,-1.5%
CC(C)(C)c1ccc(C(=O)C[n+]2ccc(Cl)c3ccc(Cl)cc32)cc1,·,·,-5.2%
COC(=O)[C@@]12C[C@@H](CC(=O)N3CCN(C(=O)c4ccco4)CC3)C(=O)N(Cc3ccco3)C1=CCC(C)(C)C2,·,·,-0.7%
COc1ccc(N2CCN(C(=O)C(=O)c3ccc(F)cc3)CC2)cc1,·,·,-9.4%
COc1ccc(NC(=O)C(c2ccnc3ccccc23)n2c(=O)c(-c3ccco3)nc3ccccc32)cc1 (stereo not given),·,·,-12.9%
CCOC(=O)[C@]12CCCC=C1N(CCC1=CCCCC1)C(=O)[C@H](CC(=O)NCCCCc1ccccc1)C2,·,·,1.6%
Cc1[nH]c2ccccc2c1/C=C/c1cnc2ccccc2n1,·,·,-9.4%
O=c1c(-c2ccccc2)nc2ccccc2n1C(c1ccccc1)c1nc2ccccc2[nH]1 (stereo not given),·,·,-29.9%
CCCCCCCCN1C(=O)[C@H](CC(=O)NCc2ccc(C)o2)C[C@@]2(C(=O)OC)CC(C)(C)CC=C12,·,·,0.9%
CCOC(=O)N1CCN(C(C(=O)NC2CCCC2)C(C)C)CC1 (stereo not given),·,·,-0.6%
COc1cccc(C(C(=O)NCc2ccccc2)N2CCN(CCN3CCOCC3)CC2)c1OC (stereo not given),·,·,-4.0%
CCC(C)CN1C(=O)CSCC1(C)C(=O)NC(C)C (stereo not given),·,·,-1.1%
Cc1ccc(S(=O)(=O)Nc2ccccc2OC(C(=O)OC(C)(C)C)C(=O)OC(C)(C)C)cc1,·,·,?
COCCNC(=O)C1C(=O)Nc2ccccc2C(=O)N1Cc1ccccc1 (stereo not given),·,·,-0.8%
CC/C(=C\c1ccc(C(=O)OC)cc1)c1cc(OC)cc2oc3ccccc3c12,·,·,4.2%
O=C(Nc1c(-c2ccccc2)[nH][nH]c1=O)c1ccc(-c2ccccc2)cc1,·,·,-0.2%
COC(=O)C[C@@H]1CC[C@@H](NC(=O)C2CCC2)[C@@H](CO)O1,·,·,-2.2%
COc1ccc(C2=Nc3ccccc3N(C(=O)c3ccc4c(c3)OCO4)C2C(=O)Nc2c(C)cccc2C)cc1 (stereo not given),·,·,?
CCCCCNC(=O)C(c1ccc(OC)cc1)n1c(=O)c(-c2ccco2)nc2ccccc21 (stereo not given),·,·,4.1%
N#Cc1ccc(/C=C2/C=Cc3ccccc32)cc1,·,·,-1.6%
COC(=O)C1=CN(c2ccc(C(C)(C)C)cc2)C(N)=C(C#N)C1c1ccccc1F (stereo not given),·,·,185.8%
CO[C@H]1CN(C)C(=O)c2cc(NC(=O)c3ccccc3)ccc2OC[C@H](C)NC[C@@H]1C,·,·,-0.1%
